H5N1 CPE: antiviral screen in MDCK cells, H5N1 avian flu; cytopathic effect, luminescence, 72 h; hits give high values; no value below 0 was filed and about half of the inactive calls have no number; reference of the scale not given here; inhibition, % at 50 µM; actives 0.07% (n = 96,000); in the data active means inhibition above about 25%
Active calls of the source: *; i = inactive. Some of the compounds tested. The share of hits here may be higher or lower than overall.

Start of the listing, in advance, 5 compounds:
| compound | H5N1 CPE |
| --- | --- |
| CCCCCCC1CCC(C(=O)Nn2c(C)nc3ccccc3c2=O)CC1 (configuration not stated) | i |
| COc1ccc2cc(CN(CCO)C(=O)c3ccc(Br)cc3)c(=O)[nH]c2c1 | 0.6 |
| O=C(O)COc1ccc2c3c(c(=O)oc2c1)CCC3 | 0.6 |
| CC1N(C)c2cc(NC(=O)c3ccco3)ccc2C1(C)C (configuration not stated) | 1.9 |
| O=C(C1CCN(c2nnc(-n3cccc3)s2)CC1)N1CCOCC1 | 0.1 |

The listing, repeating the preview:
| compound | H5N1 CPE |
| --- | --- |
| CCCCCCC1CCC(C(=O)Nn2c(C)nc3ccccc3c2=O)CC1 (configuration not stated) | i |
| COc1ccc2cc(CN(CCO)C(=O)c3ccc(Br)cc3)c(=O)[nH]c2c1 | 0.6 |
| O=C(O)COc1ccc2c3c(c(=O)oc2c1)CCC3 | 0.6 |
| CC1N(C)c2cc(NC(=O)c3ccco3)ccc2C1(C)C (configuration not stated) | 1.9 |
| O=C(C1CCN(c2nnc(-n3cccc3)s2)CC1)N1CCOCC1 | 0.1 |
| C=CCNC(=O)c1c(-c2c(F)cccc2Cl)noc1C | 0.5 |
| O=C(CN1C(=O)CN=C(c2ccccc2)c2ccccc21)NCc1ccco1 | i |
| CN1CCN(C(=O)COc2ccc(S(=O)(=O)NCc3ccccc3)cc2Cl)CC1 | 1.2 |
| CC1CCCCN1S(=O)(=O)c1ccc(S(=O)(=O)N2CCN(c3ccccc3)CC2)cc1 (configuration not stated) | 0.3 |
| COc1cc(-c2nnc(SCc3c(F)cccc3Cl)o2)cc(OC)c1OC | 2.3 |
| Cc1cc(NC(=O)c2cccnc2)ccc1NC(=O)c1ccco1 | i |
| Cc1ccc2ccccc2c1COC(=O)c1nonc1N | i |
| Cn1cccc1C(C(=O)NC1CCCCC1)N(C(=O)Cc1cccs1)c1ccc2c(c1)OCO2 (configuration not stated) | i |
| CC1(C)CC2CC(C)(CN2C(=O)COc2cccc3ccccc23)C1 (configuration not stated) | 15 |
| Cc1ccc(-n2c3c(cc(C(=O)NCc4ccco4)c2=O)C(=O)CC(C)(C)C3)cc1 | 1.9 |
| CCc1ccc(OCC(=O)Nc2ccc3c(c2)COC3=O)cc1 | i |
| CCOC(=O)N1CCN(C(=O)C2COc3ccccc3O2)CC1 (configuration not stated) | i |
| CCOc1ccccc1-n1c(SCC(=O)NC)nnc1-c1ccco1 | i |
| COc1ccc(N2C(=O)CCC(C(=O)NCc3cccnc3)C2c2ccc(OC)c(OC)c2)cc1 (configuration not stated) | 0.1 |
| CCCc1nnc(SCc2ccc(OCC)cc2)n1N | i |
| COC(CNC(=O)c1ccc(N2CCCC2=O)cc1)OC | i |
| COC(=O)CSc1nnc(CNc2ccc(Cl)cc2)n1Cc1ccccc1 | i |
| Cc1ccc(C(=O)Nc2cnc3ccccn3c2=O)cc1 | i |
| CCOc1ccc(CCNC(=O)Cn2c(=O)oc3ccccc32)cc1OCC | 2.1 |
| Cc1noc(C)c1S(=O)(=O)N(CC(=O)N1CCCCCC1)c1ccc(C(C)C)cc1 | 4.3 |
| c1ccc(C(c2nnnn2C2CCCCC2)N2CCc3ccccc3C2)nc1 (configuration not stated) | i |
| CCC12C=CCN3CCC4(c5cc(Br)c(OC)cc5N(C)C4C(O)(C(=O)OC)C1OC(C)=O)C32 (configuration not stated) | 1.2 |
| CSc1ccccc1C(=O)NCCSc1ccccc1 | i |
| COc1cccc(NC2CC(=O)N(CCc3ccccc3)C2=O)c1 (configuration not stated) | i |
| O=C(c1sccc1-n1cccc1)N1CCCC1 | 0.7 |
| O=C(C(F)C(F)(F)F)N1CCN(c2ccccc2)CC1 (configuration not stated) | 0.0 |
| CC1CCN(C(=O)CSc2ccc(-c3ccc(F)cc3)nn2)CC1 | 3.4 |
| Cc1cccc(-n2c(CCn3nc(C)c([N+](=O)[O-])c3C)n[nH]c2=S)c1 | 0.9 |
| CCOC(=O)C1=C(C)NC(C)=C(C(=O)OCC)C1c1ccc(OC)cc1 | i |
| CC(C(=O)NCC1(c2ccccc2)CCCC1)N1CCOCC1 (configuration not stated) | 1.0 |
| COc1cccc(-c2nc(=S)c3c(n2Cc2ccco2)CCCC3)c1 | i |
| O=S(=O)(c1ccc(Cl)c(C(F)(F)F)c1)N1CCN(CC(O)COCC2CCCO2)CC1 (configuration not stated) | i |
| CCNC(=O)COc1ccc2ccccc2c1 | i |
| CCOC(=O)c1cccc(NC(=O)C2CCC(CNc3c(N4CCOCC4)c(=O)c3=O)CC2)c1 (configuration not stated) | 0.4 |
| CC(=O)C1=C(C)NC(SCC(=O)c2ccc(Cl)cc2Cl)=C(C#N)C1c1ccco1 (configuration not stated) | 4.7 |
| CC(=O)Nc1ccc(S(=O)(=O)Nc2nnc(C(C)(C)C)s2)cc1 | i |
| S=c1nc(-c2cccc(Br)c2)[nH][nH]1 | i |
| Cc1ccc(/C=C/C(=O)O)cc1S(=O)(=O)NCCO | 0.7 |
| CCOc1ccccc1N1C(=O)CC(Nc2ccc(N3CCOCC3)cc2)C1=O (configuration not stated) | i |
| CCCn1c(C(O)c2cc(OC)ccc2OC)nc2ccccc21 (configuration not stated) | 0.5 |

Part of the list above in order of count of non-hydrogen atoms, falling.
| compound | H5N1 CPE |
| --- | --- |
| COc1cccc(-c2nc(=S)c3c(n2Cc2ccco2)CCCC3)c1 | i |
| CC1CCN(C(=O)CSc2ccc(-c3ccc(F)cc3)nn2)CC1 | 3.4 |
| CC(C(=O)NCC1(c2ccccc2)CCCC1)N1CCOCC1 (configuration not stated) | 1.0 |
| S=c1nc(-c2cccc(Br)c2)[nH][nH]1 | i |

The results go on.
| compound | H5N1 CPE |
| --- | --- |
| O=C(NCN1C(=O)C2C3C=CC(C3)C2C1=O)Nc1cccnc1 (configuration not stated) | i |
| CN(c1cccc(NC(=O)Nc2cccc(Cl)c2)c1)S(C)(=O)=O | 1.3 |
| CCOc1cc(/C=N/NC(N)=O)cc(Br)c1OCC(=O)Nc1cccc2ccccc12 | 0.6 |
| Cn1/c(=N/N=C/c2ccc([N+](=O)[O-])cc2)sc2ccccc21 | i |
| O=C(Nc1ccc(-c2noc(CCc3ccccc3)n2)cc1)c1cccnc1 | 4.0 |
| O=C(CCCCn1c(=O)c2ccccc2n(Cc2ccc(F)cc2)c1=O)NCc1ccco1 | i |
| CSc1ccc(Cl)c(C(=O)Nc2ccc(OCC(N)=O)cc2)c1 | 0.5 |
| COc1ccc(S(=O)(=O)N2CCN(C(=O)c3ccco3)CC2)cc1OC | i |
| COc1ccccc1N1CCN(S(C)(=O)=O)CC1 | i |
| CCOC(=O)c1oc2cccc(OC(C)=O)c2c1C | i |
| COC(=O)c1ccccc1NC(=O)CN1CCN(C(=O)c2ccco2)CC1 | i |
| CCOC(=O)N1CCN(CC(=O)N2c3ccccc3CC2C)CC1 (configuration not stated) | i |
| O=C(c1ccco1)N1CCN(C(=O)c2ccc(COc3ccc4c(c3)CCC4)o2)CC1 | i |
| Cc1cc(C)c(Cc2c(C)nc3c(C(=O)NCc4ccco4)cnn3c2C)c(C)c1 | i |
| CCN1CCN(c2cc(C)c3cc(NC(=O)Cc4ccc(OC)c(OC)c4)ccc3n2)CC1 | i |
| O=C(C1CCC1)N1CCc2cc(S(=O)(=O)NCc3cccnc3)ccc21 | i |
| CC(=O)NC1(c2ccccc2)CCN(c2nc(C)cc(C)n2)CC1 | i |
| O=C(Nc1ccccc1C(=O)N1CCCCCC1)c1cccc(S(=O)(=O)N2CCOCC2)c1 | i |
| CCCCCOC(=O)c1[nH]c2c(c1C)C(=O)C(C(=O)OC)C(C)C2 (configuration not stated) | i |
| CC(=O)Cc1nsc(NC(=O)c2ccccc2)n1 | i |
| CCN1CCN(Cc2oc(CO)cc(=O)c2O)CC1 | i |
| CCOC(=O)c1ccccc1NC(=O)c1c(F)c(F)c(F)c(F)c1F | 0.5 |
| COc1ccc(C2NC(=S)N3C(c4ccc(OC)cc4)NC(=S)N23)cc1 (configuration not stated) | i |
| CC1CCCN(c2nc3ccccc3nc2C(C#N)S(=O)(=O)c2cccs2)C1 (configuration not stated) | 1.1 |
| CC1(C)N(OCc2ccccc2)C(=O)C(=O)N(OCc2ccccc2)C1(C)C | 2.0 |
| COc1ccc(-c2cc(C)nc(SCC(=O)c3cccc([N+](=O)[O-])c3)n2)cc1 | 2.3 |
| CCOC(=O)CCc1c(C)nc2cc(-c3ccc(Cl)cc3)[nH]n2c1=O | i |
| O=C(Nc1cccc2ccccc12)c1nn(C23CC4CC(CC(C4)C2)C3)cc1Br | 1.5 |
| Cc1ccc(S(=O)(=O)N2CCN(C)CC2)cc1-c1nnc2c3ccccc3c(C)nn12 | 0.3 |
| COc1ccc(NC(=O)c2cccnc2Cl)c(S(=O)(=O)N2CCOCC2)c1 | i |
| O=C(CC1Oc2ccc(Cl)cc2NC1=O)NC1CCCCCC1 (configuration not stated) | 0.3 |
| CNS(=O)(=O)c1ccc(NC(=O)c2nc3nc(C)cc(C(F)F)n3n2)cc1 | 0.5 |
| CN=C1c2ccccc2CN1c1cccc(C(=O)OC)c1 | i |
| CCC(CC)C(=O)NCCc1ccc(OC)cc1 | 0.7 |
| COc1ccc(S(=O)(=O)N2CCCC2C(=O)Nc2nnc(-c3cccnc3)s2)cc1 (configuration not stated) | i |
| O=C(c1cc(-c2cccs2)nc2ccccc12)N1CCN(S(=O)(=O)c2cccc(F)c2)CC1 | 1.6 |
| CC1CCN(C(=O)CSc2nnc(CNC(=O)COc3ccc(Cl)cc3)o2)CC1 | 0.9 |
| OCCCc1nc2n(n1)C(c1ccccc1Cl)C=C(c1cccs1)N2 (configuration not stated) | i |
| CCN1CCN(Cc2nc3c(c(=O)n(C)c(=O)n3C)n2Cc2ccccc2Cl)CC1 | 0.6 |
| CCc1nnc(NC(=O)CSc2nnc(-c3ccccc3O)n2CC)s1 | 0.3 |
| CCOC(=O)c1cc2nc(Nc3ccc(OC)cc3)sc2s1 | i |
| Cc1ccc2c(c1)NC(=O)C(CC(=O)NCCCN1CCN(c3cc(C)ccc3C)CC1)O2 (configuration not stated) | i |
| Cn1cnnc1SCC(=O)Nc1ccccc1C(=O)NC1CC1 | 1.0 |
| c1ccc(-c2cn3nc4c(nc3n2)CCCC4)cc1 | i |
| Cc1ccn2c(-c3csc(NCc4ccco4)n3)c(C)nc2c1 | 1.2 |

Continued (two carried over from the part before).
| compound | H5N1 CPE |
| --- | --- |
| c1ccc(-c2cn3nc4c(nc3n2)CCCC4)cc1 | i |
| Cc1ccn2c(-c3csc(NCc4ccco4)n3)c(C)nc2c1 | 1.2 |
| CCCCn1c(O)c(C(C)=NCCCN(CC)CC)c(=O)[nH]c1=O | 1.1 |
| O=C(CCN1CCCCCC1)Nc1ccc(F)c(F)c1 | i |
| CSc1nc(C)cc(OCC(=O)N2CCOCC2)n1 | 0.5 |
| COc1cc(-c2ccc(NC(=O)CN3CCC(C)CC3)c(OC)c2)ccc1NC(=O)CN1CCC(C)CC1 | 1.8 |
| COC(=O)CNC(=O)c1cn(CC(C)C)c(=O)c2cc(OC)c(OC)cc12 | i |
| COc1cccc(C(=O)Oc2cccc(N3C(=O)C4C5CC(C(Br)C5Br)C4C3=O)c2)c1 (configuration not stated) | i |
| CC(=O)c1ccc(Cc2ncc(C(F)(F)F)cc2Cl)s1 | 2.3 |
| CCOC(=O)N1CCC(NC(=O)COc2cc(=O)n(C)c3ccccc23)CC1 | 0.6 |
| CSc1nc(-c2ccco2)nn1C(=O)c1ccco1 | 0.7 |
| Cc1cc(NCCCN2CCOCC2)n2ncc(-c3ccc(Cl)cc3)c2n1 | i |
| CCn1c(=O)n(CC)c2cc([N+](=O)[O-])ccc21 | 0.6 |
| Cc1c(C(=O)NCCCN2CCCC2=O)oc2ccccc12 | i |
| c1ccc2[nH]c(CN3CCCCC3)nc2c1 | 0.7 |
| CN(C)c1ncc(S(=O)(=O)c2ccc(Cl)cc2)c(-c2ccc(Cl)cc2Cl)n1 | 2.4 |
| CCCCOCCCNC(=O)c1ccc(NC(C)=O)cc1 | i |
| COc1ccc(CSc2nncn2N)cc1Br | 0.6 |
| CCc1nnc(NC(=O)CCC(=O)N2CCN(Cc3cc(F)ccc3OC)CC2)s1 | i |
| CCOC(=O)C1CCN(C(=O)CCNC(=O)Cn2ccc3ccccc3c2=O)CC1 | 1.5 |
| Cc1ccnc(SCCn2c(N3CCCCC3)nc3c2c(=O)[nH]c(=O)n3C)n1 | 1.5 |
| COc1ccc(-c2nc(CSCC(=O)N3CCN(C(=O)c4ccco4)CC3)c(C)o2)cc1OC | 0.1 |
| CC(C)(C)c1ccc(C(=O)N2CCNCC2)cc1 | 1.7 |
| Clc1ccccc1CSc1cc2c(nn1)-c1ccccc1CC2 | 0.1 |
| O=C(Nc1ccc(N=Nc2ccccc2)cc1)c1ccc(Cl)cc1Cl | 0.6 |
| COc1ccccc1-c1c(NC(=O)c2ccco2)n(-c2ccccc2)nc(C)c1=O | i |
| O=C(O)CSc1nnc(-c2ccncc2)n1-c1ccc(Cl)cc1 | i |
| O=C(CSc1nnc(Cn2c(=O)sc3ccccc32)n1-c1ccccc1)Nc1nccs1 | 2.5 |
| CC(=O)Nc1nc(COc2ccc3ccccc3c2)cs1 | i |
| COc1ccccc1C1CC(=O)Nc2c1c(=O)n(C)c(=O)n2C (configuration not stated) | 0.1 |
| Cn1c(=O)c2nc(NCc3ccccc3)cnc2n(C)c1=O | i |
| O=C(OCC(=O)N1CCOCC1)c1ccc2c(c1)OCCO2 | 1.0 |
| CCOc1ccc(-n2c(SCC(=O)Nc3ccc(OC)cc3)nc3c(c2=O)SCC3)cc1 | i |
| O=C(Cn1ncc2c(=O)oc3ccccc3c21)NCCN1CCN(c2ccccc2F)CC1 | i |
| C=CCNC(=O)CN(c1ccc(F)c(Cl)c1)S(C)(=O)=O | 1.5 |
| COC(=O)C1C(=O)c2c([nH]c(C(=O)OC3CCCCCC3)c2C)CC1C (configuration not stated) | 0.1 |
| Cc1ccc(-c2cc(C(F)F)n3ncc(C(=O)N4CCC5(CC4)OCCO5)c3n2)cc1 | 0.8 |
| Cc1cc(C(F)(F)F)nn1Cc1n[nH]c(=S)n1-c1cccc(Cl)c1 | i |
| CCOC(=O)c1c(CSC(=N)N)n(-c2ccc(C)cc2)c2cc(Br)c(OC(C)=O)cc12 | i |
| CCOC(=O)CC(=O)c1cc(OC)c(OC)c(OC)c1 | 0.3 |
| Cc1ccc(N=CC2=C(O)CC(C)(C)CC2=O)nc1 | i |
